Bioassay records (PubChem BioAssay)
ID4 binder: binders of human ID4 protein, primary screen, biochemical, small molecule microarray, single point. AID 624137, 2012. 1.2% of 31,000 active. calls only. Flag-ID4 binding, fluorescence F/B;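 active = spot signal over background at p below 0.07 in all four prints; compounds were printed on slides so no solution concentration is given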;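 note: a binder raises fluorescence above local background on the spot; about 2 pmol printed per array spot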
Target sequence (P47928 whole entry, looked up): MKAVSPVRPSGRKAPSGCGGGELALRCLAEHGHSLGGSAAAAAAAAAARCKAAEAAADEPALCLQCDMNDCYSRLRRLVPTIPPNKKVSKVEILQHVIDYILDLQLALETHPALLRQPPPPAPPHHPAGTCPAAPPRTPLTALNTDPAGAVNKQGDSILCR
Calls only; i = inactive. Only part of the results is shown. The share of hits here may be higher or lower than overall.

canonical_smiles | ID4 binder
COC(=O)c1ccccc1NC(=O)CSc1[nH]c(=O)cc(C)c1C#N | i
Cc1cc(C)c(C)c(S(=O)(=O)NCC(=O)Nc2ccc3c(c2)OCCO3)c1C | i
Cc1ccc(S(=O)(=O)N(C)C[C@@H]2Oc3ncc(-c4ccncc4)cc3C(=O)N([C@@H](C)CO)C[C@@H]2C)cc1 | i
C/C=C/c1cnc2c(c1)C(=O)N([C@@H](C)CO)C[C@@H](C)[C@H](CN(C)Cc1ccc3c(c1)OCO3)O2 | i
Oc1ccc(Cl)cc1CNc1nc2ccccc2[nH]1 | i
O=C(C[C@H]1C=C[C@H](NC(=O)c2ccccc2)[C@H](CO)O1)Nc1ccc(-c2ccccc2)cc1 | i
COC(=O)N(C)C[C@H]1OCc2ccccc2-c2ccccc2C(=O)N([C@@H](C)CO)C[C@@H]1C | i
CCCC#Cc1ccc2c(c1)O[C@H](CN(C)C(=O)C1CCCCC1)[C@@H](C)CN([C@@H](C)CO)S2(=O)=O | i
COc1ccc(NC(=O)Cn2cnc3sc(-c4ccccc4)cc3c2=O)c([N+](=O)[O-])c1 | i
COC(=O)C[C@H]1CC[C@@H](N)[C@@H](CO)O1 | i
C[C@H]1CN([C@@H](C)CO)S(=O)(=O)c2ccc(C#CC3CC3)cc2O[C@@H]1CN(C)C(=O)CN(C)C | i
CO[C@H](CN(C)C(=O)C1CCOCC1)[C@H](C)CN([C@H](C)CO)S(=O)(=O)c1ccccc1 | i
C[C@@H]1CN([C@@H](C)CO)C(=O)c2cc(C#CC3(O)CCCC3)cnc2O[C@H]1CN(C)C | i
COC(=O)c1ccccc1NC(=O)CSc1n[nH]c(-c2ccccc2Cl)n1 | i
C[C@@H]1CN([C@@H](C)CO)C(=O)c2cc(-c3ccc(F)cc3)cnc2O[C@H]1CN(C)CC1CCCCC1 | i
COC(=O)c1cccc(NC(=O)CSc2nc3cc4ccccc4cc3[nH]2)c1 | i
Cc1ccc(Sc2sc(=O)n(C)c2S(=O)(=O)c2ccc(C)cc2)cc1 | i
CCOc1c(Cl)cc(CNCc2ccccn2)cc1OC | i
CO[C@@H]1CN(C)C(=O)c2cc(NC(=O)C3CCC3)ccc2OC[C@@H](C)N(Cc2cccnc2)C[C@H]1C | i
Cc1cc(C(=O)CSc2ncn[nH]2)c(C)n1-c1cc(Cl)ccc1Cl | i
C[C@H]1CN([C@@H](C)CO)C(=O)c2cc(C3=CCCCC3)cnc2O[C@H]1CN(C)Cc1cccc(F)c1 | i
COc1cccc(NC(=O)N(C)C[C@@H]2Oc3cc(C#Cc4ccncc4)ccc3S(=O)(=O)N([C@H](C)CO)C[C@@H]2C)c1 | i
COc1cccc(NC(=O)N(C)C[C@H]2Oc3cc(-c4ccccc4F)ccc3S(=O)(=O)N([C@H](C)CO)C[C@@H]2C)c1 | i
C[C@H]1CN([C@@H](C)CO)C(=O)c2cc(-c3cccc(C#N)c3)cnc2O[C@@H]1CN(C)Cc1ccc(F)cc1 | i
CS(=O)(=O)N(CC(=O)Nc1ccccc1C(F)(F)F)c1cccc(F)c1 | i
Cc1ccc(NC(=O)CSc2c(C)n[nH]c2C)cc1Cl | i
C[C@H](NC(=O)C[C@@H]1CC[C@H](NC(=O)c2cccnc2)[C@@H](CO)O1)c1ccccc1 | i
CCc1ccc(N2C(=S)N(C(=O)c3cccs3)C3CC2(C)Oc2ccccc23)cc1 (stereo not given) | i
Cn1c(SCC(=O)Nc2ccccc2Cl)nnc1-c1cccc([N+](=O)[O-])c1 | i
Cc1nnc(SCC(=O)Nc2ccccc2C#N)s1 | i
O=S(=O)(c1cccc2c(Cl)cccc12)N1CCCNCC1 | i
COc1cccc(C(=O)Nc2ccc3c(c2)C(=O)N(C)C[C@@H](OC)[C@H](C)CN[C@H](C)CO3)c1 | i
O=C(C[C@@H]1C[C@@H]2c3cc(NC(=O)c4cccnc4)ccc3O[C@@H]2[C@@H](CO)O1)NCCN1CCCCC1 | i
CCC(=O)N[C@H]1C=C[C@@H](CC(=O)NCC2CCCCC2)O[C@H]1CO | i
Cc1ccc(NS(=O)(=O)c2cc(C(=O)Nc3ccccc3C(=O)N3CCCC3)ccc2Cl)cc1C | i
O=C(C[C@@H]1C=C[C@H](NC(=O)C2CC2)[C@H](CO)O1)NCC1CC1 | i
COc1ccc(C)cc1S(=O)(=O)N(C)CC(=O)N1CCOCC1 | i
C[C@H]1CN([C@@H](C)CO)C(=O)c2cc(C#Cc3cccc(F)c3)cnc2O[C@@H]1CN(C)Cc1ccccn1 | i
CO[C@@H](CN(C)Cc1ccc(-c2ccccn2)cc1)[C@@H](C)CN(C(=O)Nc1ccc(F)cc1)[C@@H](C)CO | i
O=C(NCc1nc(-c2ccccc2)no1)c1ccc2ccccc2c1 | i
Cc1ccc(C)c(C(Nc2ccccn2)c2ccc3ccc(C)nc3c2O)c1 (stereo not given) | i
CNC(=O)CN(c1ccc(Br)c(C)c1)S(C)(=O)=O | i
Cc1cc(C)c(NC(=O)CN(C)S(=O)(=O)c2ccc3ccccc3c2)c(C)c1 | i
C[C@@H]1CN([C@H](C)CO)C(=O)c2cc(C3=CCCCC3)cnc2O[C@H]1CN(C)Cc1cccc(F)c1 | i
O=C(CSc1nc2ccccc2s1)Nc1ccc(I)cc1 | i
CN1CCC(OC(=O)COc2ccc(F)cc2)CC1 | i
O=C(CSc1ncnc2sc3c(c12)CCC3)Nc1cccc(-c2nc3ccccc3s2)c1 | i
C[C@H](CO)N1C[C@H](C)[C@H](CN(C)C(=O)C2CC2)Oc2cc(-c3ccncc3)ccc2S1(=O)=O | i
Cc1ccccc1OCC(=O)Nc1cccc(-c2nc3ncccc3o2)c1 | i
O=C(CN1C(=O)c2cccc3cccc1c23)Nc1ccc(S(=O)(=O)N2CCCCCC2)cc1 | i
C[C@H]1CN([C@@H](C)CO)C(=O)c2cc(Br)cnc2O[C@H]1CN(C)Cc1ccc2c(c1)OCO2 | i
C[C@H]1CN([C@@H](C)CO)C(=O)c2cc(C#CCC3CCCC3)cnc2O[C@@H]1CN(C)Cc1ccccn1 | i
O=C(CCn1nc(-c2ccc(Cl)cc2)c2ccccc2c1=O)Nc1ccc(Br)cc1 | i
O=C(Nc1ccccc1)c1ccc(S(=O)(=O)NCc2ccco2)cc1 | i
COc1ccc(CNc2nc(-c3ccc(Cl)cc3)nn2C(=O)c2ccco2)cc1 | i
CC(=O)c1ccc(NC(=O)CSc2ncnc3c2sc2nc4c(cc23)COC(C)(C)C4)cc1 | i
O=C(COc1ccc([N+](=O)[O-])cc1)Nc1cccc(-c2nc3c(ccc4ccccc43)o2)c1 | i
O=C(CCCN1C(=O)c2ccccc2C1=O)Nc1cccc(Cl)c1 | i
COc1ccc(NC(=O)c2ccco2)cc1NC(=O)CSc1ccc(Cl)cc1 | i
Cc1ccc(NC(=O)CSC2CC(=O)N(c3ccc(Cl)cc3)C2=O)cc1 (stereo not given) | i

Entries above containing a cyano group, in the order listed:
canonical_smiles | ID4 binder
COC(=O)c1ccccc1NC(=O)CSc1[nH]c(=O)cc(C)c1C#N | i
C[C@H]1CN([C@@H](C)CO)C(=O)c2cc(-c3cccc(C#N)c3)cnc2O[C@@H]1CN(C)Cc1ccc(F)cc1 | i
Cc1nnc(SCC(=O)Nc2ccccc2C#N)s1 | i

Looked up one by one from above:
canonical_smiles | ID4 binder
O=C(Nc1ccccc1)c1ccc(S(=O)(=O)NCc2ccco2)cc1 | i
O=C(CCCN1C(=O)c2ccccc2C1=O)Nc1cccc(Cl)c1 | i
O=C(CSc1nc2ccccc2s1)Nc1ccc(I)cc1 | i
O=C(C[C@@H]1C[C@@H]2c3cc(NC(=O)c4cccnc4)ccc3O[C@@H]2[C@@H](CO)O1)NCCN1CCCCC1 | i
O=C(CSc1ncnc2sc3c(c12)CCC3)Nc1cccc(-c2nc3ccccc3s2)c1 | i
CCC(=O)N[C@H]1C=C[C@@H](CC(=O)NCC2CCCCC2)O[C@H]1CO | i
COc1cccc(C(=O)Nc2ccc3c(c2)C(=O)N(C)C[C@@H](OC)[C@H](C)CN[C@H](C)CO3)c1 | i

Continuation:
canonical_smiles | ID4 binder
COC(=O)c1cccc(NC(=O)CSc2nc3ccccc3s2)c1 | i
C[C@@H]1CN([C@@H](C)CO)C(=O)c2cc(C3=CCCC3)cnc2O[C@@H]1CN(C)C(=O)c1ccc2c(c1)OCO2 | i
C/C=C/c1ccc2c(c1)O[C@@H](CN(C)C(=O)c1ccncc1)[C@H](C)CN([C@@H](C)CO)S2(=O)=O | i
O=C(O)C[C@H]1C=C[C@@H](NC(=O)Nc2ccccc2)[C@@H](CO)O1 | i
COc1ccc(OC)c(NC(=O)CSc2nc3ccccc3n2C2CCCCC2)c1 | i
CC(C)Cc1nc(SC(C)C(=O)Nc2ccc(Cl)cc2)n[nH]1 (stereo not given) | i
N#C[C@@H]1[C@@H](c2ccc(-c3cccc(F)c3)cc2)[C@@H](CO)N1C(=O)NC1CCCC1 | i
COCCNC(=O)C[C@@H]1C[C@@H]2c3cc(NC(=O)Nc4ccc(C(F)(F)F)cc4)ccc3O[C@@H]2[C@@H](CO)O1 | i
C[C@@H]1CN([C@H](C)CO)C(=O)c2cc(Br)cnc2O[C@H]1CN(C)C(=O)C1CCCCC1 | i
C/C=C/c1cnc2c(c1)C(=O)N([C@H](C)CO)C[C@H](C)[C@@H](CN(C)Cc1ccncc1)O2 | i
Cc1nnc(SCC(=O)Nc2ccc(Cl)cc2)n1-c1ccccc1 | i
O=C(Cn1ccc([N+](=O)[O-])n1)NCc1ccco1 | i
CCCNC(=O)N[C@@H]1C=C[C@H](CC(=O)NCCc2ccccc2)O[C@H]1CO | i
COc1ccccc1NC(=O)Cn1nnc(-c2cccs2)n1 | i
Cc1sc2nc(SCC(=O)Nc3c(F)cc(F)cc3Br)n(C)c(=O)c2c1C | i
CN(c1ccccc1C(=O)Nc1ccccc1C(=O)N1CCOCC1)S(C)(=O)=O | i
C[C@H]1CN([C@@H](C)CO)C(=O)c2cc(-c3ccccc3F)cnc2O[C@H]1CN(C)C(=O)CN(C)C | i
O=C(CSc1n[nH]c(-c2ccncc2)n1)Nc1ccc(Cl)cc1Cl | i
C[C@@H]1CN([C@H](C)CO)C(=O)c2cc(C#CCC3CCCC3)cnc2O[C@@H]1CN(C)Cc1ccccn1 | i
COC(=O)c1ccccc1NC(=O)Cn1c(C(F)(F)F)nc2ccccc21 | i
Cc1c(Br)c(C(F)(F)F)nn1CC(=O)Nc1cc(O)cc([N+](=O)[O-])c1 | i
CCCN(C)C[C@H]1OCc2cnnn2CCCC(=O)N([C@H](C)CO)C[C@H]1C | i
CCC(=O)N[C@H]1CC[C@@H](CC(=O)NCc2ccccc2F)O[C@H]1CO | i
O=C(C[C@H]1C=C[C@H](NS(=O)(=O)c2ccccc2)[C@@H](CO)O1)NCc1ccc(Cl)c(Cl)c1 | i
C[C@H](CO)N1C[C@H](C)[C@H](CN(C)C(=O)c2ccccc2)Oc2ncc(C3=CCCCC3)cc2C1=O | i
O=C(NCc1cccnc1)c1ccccc1[N+](=O)[O-] | i
O=C(CSc1n[nH]c(-c2ccco2)n1)Nc1ccc(I)cc1 | i
COc1ccc(-c2nnc(SCC(=O)c3ccc(F)cc3)n2-c2ccccc2)cc1OC | i
O=C1O[C@@H](c2ccccc2)[C@@H](c2ccccc2)N2[C@@H](c3ccc(O)cc3)[C@]3(C(=O)Nc4ccc(C#CC5(O)CCCCCC5)cc43)[C@@H](C(=O)NC[C@H](O)c3ccccc3)[C@H]12 | i
CCCNC(=O)N(C)C[C@@H]1Oc2cc(C#Cc3ccccn3)ccc2S(=O)(=O)N([C@@H](C)CO)C[C@H]1C | i

New compounds follow.
SMILES	ID4 binder
COc1ccc(NC(=O)Cc2ccccc2[N+](=O)[O-])cc1OC	i
CC(C)CC#Cc1ccc2c(c1)O[C@@H](CN(C)Cc1cncnc1)[C@@H](C)CN([C@@H](C)CO)S2(=O)=O	i
CN(C)C(=O)C[C@@H]1CC[C@@H](NC(=O)C2CCOCC2)[C@H](CO)O1	i
C[C@@H]1CN([C@H](C)CO)C(=O)c2cc(-c3ccccc3)cnc2O[C@H]1CN(C)C(=O)c1cccc(F)c1	i
C[C@@H]1CN([C@H](C)CO)S(=O)(=O)c2ccc(C3=CCCC3)cc2O[C@H]1CN(C)S(=O)(=O)c1cn(C)cn1	i
COC(=O)c1ccc(C)c(NC(=O)CN2C(=O)c3ccccc3S2(=O)=O)c1	i
O=C(O)CSc1nnc(-c2ccc(Cl)cc2)n1-c1ccccc1	i
NC(=O)Nc1ccc2[nH]ncc2c1	i
CN(C)c1ccc2c(c1)[C@@H]1C[C@H](CC(=O)NCCN3CCCCC3)O[C@@H](CO)[C@@H]1O2	i
C[C@@H]1CN([C@@H](C)CO)S(=O)(=O)c2ccc(C#CC3CC3)cc2O[C@@H]1CN(C)CC1CCOCC1	i
CC(C)OC(=O)N(C)C[C@@H]1OCc2ccccc2-c2ccccc2C(=O)N([C@@H](C)CO)C[C@H]1C	i
CCC(=O)Oc1c(S(=O)(=O)c2ccccc2)c(C)nn1C(C)(C)C	i
COC(=O)C[C@@H]1C[C@@H]2c3cc(NC(=O)NC4CCCCC4)ccc3O[C@@H]2[C@@H](CO)O1	i
C[C@@H](NC(=O)C[C@@H]1CC[C@@H](NC(=O)c2cccnc2)[C@H](CO)O1)c1ccccc1	i
O=C(COc1ccc(NS(=O)(=O)c2cccc3cccc(Cl)c23)cc1)N1CCOCC1	i
CC1=C(C(=O)Nc2ccccc2)C(c2ccco2)n2ncnc2N1 (stereo not given)	i
CC(C)NC(=O)N(C)C[C@H]1Oc2c(cccc2N(C)C)C(=O)N([C@H](C)CO)C[C@H]1C	i
O=C(N1CCOCC1)[C@@]1(Cc2ccccc2)COC(c2ccc(OCCCO)cc2)=N1	i
Cc1cc(OCC(=O)Nc2cc(-c3nc4ncccc4o3)ccc2C)ccc1Cl	i
CS(=O)(=O)N(CC(=O)Nc1ccc(C(F)(F)F)cc1)c1ccc(I)cc1	i
O=C(O)c1cccc(NC(=O)C2(c3ccccc3)CCN(S(=O)(=O)c3ccccc3)CC2)c1	i
CCCN(C)C[C@H]1Oc2cc(C#CC3CCCC3)ccc2S(=O)(=O)N([C@@H](C)CO)C[C@H]1C	i
